P. yoelii liver = Plasmodium liver-stage growth inhibition, dose response, imaging, Malaria Box, P. yoelii, HepG2-A16-CD81EGFP (AID 602156); P. yoelii liver stage in HepG2-A16-CD81EGFP, imaging; first-round cut-off not given here; hit rate 4.8% among 5,700; calls after a first round at 10 µM; hits with a dose series show IC50 in µM; in the data active = a potency from the dose series;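 also: infected cells exposed to compound for 48 hours before fixation; stained parasite area by imaging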
Active calls of the source: *; i = inactive. Not all compounds are listed, so the mix of outcomes need not match the whole.

SMILES	P. yoelii liver
O=C(C(Cc1ccc(O)cc1)c1ccccc1)N1CCC(n2c(Cc3ccc(F)cc3)nc3cccnc32)CC1 (centres undefined)	i
CCOC(=O)CCC(=O)Oc1ccccc1-c1nc2ccccn2c1NC(C)(C)CC(C)(C)C	i
O=[N+]([O-])c1ccc(-c2cn3nc(C(F)(F)F)sc3n2)cc1	i
CC(=O)c1ccc(NC(=O)CN(C)S(=O)(=O)c2ccc3[nH]c4c(c3c2)CCCC4)cc1	i
CCc1cc(=O)n(C)c(SC(C)C(=O)Nc2ccc(F)cc2)n1 (centres undefined)	i
O=C(COc1ccccc1)NC(c1ccc([N+](=O)[O-])cc1)c1cc(Cl)c2cccnc2c1O (centres undefined)	i
CC(=O)Nc1ccc(S(=O)(=O)N2CCC(c3nc(-c4cccnc4)no3)CC2)cc1	i
CCC1=NN2C(=N)/C(=C/c3ccc(OCCOc4ccc(Br)cc4)c(OC)c3)C(=O)N=C2S1	i
O=C(Nc1ccc(-c2nnc(-c3ccc(NC(=O)c4ccccc4[N+](=O)[O-])cc3)o2)cc1)c1ccccc1[N+](=O)[O-]	i
Cc1cccc(CCNc2cc(C)nc3ncnn23)c1	i
Cc1occc1C(=O)NN=C/C(Cl)=C/c1ccccc1	i
Cc1c(C(=O)NCCN2CCCC2)cnn1-c1ncc2c(n1)-c1ccccc1SC2	i

Ordered by formula weight (rising): part of the list above.
SMILES	P. yoelii liver
CC(=O)Nc1ccc(S(=O)(=O)N2CCC(c3nc(-c4cccnc4)no3)CC2)cc1	i
O=C(C(Cc1ccc(O)cc1)c1ccccc1)N1CCC(n2c(Cc3ccc(F)cc3)nc3cccnc32)CC1 (centres undefined)	i
O=C(Nc1ccc(-c2nnc(-c3ccc(NC(=O)c4ccccc4[N+](=O)[O-])cc3)o2)cc1)c1ccccc1[N+](=O)[O-]	i

Other results:
SMILES	P. yoelii liver
CC(=O)c1ccc(N2C(C)c3nc4ccccc4c(=O)n3C2c2cccc(O)c2)cc1 (centres undefined)	i
O=C(CCCc1nc(-c2ccccc2)no1)NCc1cccnc1	i
CCOC(=O)c1nnn(-c2nonc2-n2cccc2)c1CN1CCCCC1	i
CC(C)(C)c1cc(Br)cc(C=NNc2ccc([N+](=O)[O-])cc2)c1O	i
C[N+](C)=C1C=CC(=C2C=C(c3ccccc3)SC(c3ccccc3)=C2)C=C1	i
CC(Oc1ccc(Cl)cc1Cl)c1nc(-c2ccc(NC(=O)c3cccs3)cc2)no1 (centres undefined)	0.11µM*
CC(=O)c1cccc(CN2CCC(C(=O)Nc3ccc(-n4nc(C)cc4C)cc3)CC2)c1	i
COC(=O)C1=C(C)NC2=C(C(=O)CC(c3ccc(OC)c(OC)c3)C2)C1c1cccc(O)c1 (centres undefined)	i
Cc1cc(Nc2cccc(Cl)c2)nc(NCc2ccccc2)n1	i
COc1ccc(-c2ncc([C@@H]3C[C@H]4CN(c5ccccc5)C(=O)[C@]45CCCN35)cn2)cc1	i
CCOC(=O)c1c(NC(=O)C(C)Sc2nnc(CNC(=O)c3ccco3)n2-c2cccc(C(F)(F)F)c2)sc2c1CCC2 (centres undefined)	i
O=C1NN=C2C1=NC1(CCCCC1)Cc1ccccc12	i
COc1cc(NC(C)CCCN(Cc2ccc(OC)c(OC)c2)C(=O)CCC2CCCC2)c2ncccc2c1 (centres undefined)	i
Nc1cc(C(=O)Nc2ccc(C3=NCCN3)cc2)ccc1C(=O)Nc1ccc(C2=NCCN2)cc1	i
C=C(Cl)CSc1nnc(CCNC(=O)c2ccc(C)cc2)n1-c1ccc(F)cc1	i
CCOc1ccc(C2C(=O)N(C3CCCCC3)CC(=O)N2Cc2ccc(F)cc2)cc1OC (centres undefined)	i
Oc1c(C(Nc2ccccn2)c2ccncc2)ccc2cccnc12 (centres undefined)	i
COc1cc(NC(=O)Cn2ncc3c(=O)oc4ccccc4c32)cc(OC)c1OC	i
CN(Cc1cc(-c2ccccc2)ccc1O)CC(O)c1ccccc1 (centres undefined)	i
COc1cc(O)c2c(=O)cc(CCOC(=O)Nc3ccccc3)[nH]c2c1	i
O=S(=O)(NCCNc1ncnc2scc(-c3ccccc3)c12)c1ccc(Cl)c(Cl)c1	i
COc1cc(NC(C)CCCN(Cc2ccc(N(C)C)cc2)S(=O)(=O)c2c(C)cc(C)cc2C)c2ncccc2c1 (centres undefined)	i
CC[n+]1c(C=C2Sc3cc(NC(C)=O)ccc3N2C)ccc2ccccc21	i
Brc1cc(Br)c2c(-c3ccccc3)n(-c3ccccc3)nc(-c3ccccc3)c1-2	i
CC1CCN(C(=O)C(C)N(c2ccccc2)S(C)(=O)=O)CC1 (centres undefined)	i
Cc1cc(C)c(S(=O)(=O)N2CCC(NC(=O)c3ccccc3)CC2)c(C)c1	i
O=C1CSC(=Nc2ccc(F)c(Cl)c2)N1c1ccc(F)c(Cl)c1	i
O=C(c1cc([N+](=O)[O-])cc([N+](=O)[O-])c1)N1CCN(c2cccc(C(F)(F)F)c2)CC1	i
Cc1occc1C(=O)NN=CC(Br)=Cc1ccccc1	i
CCC(C)C(=O)N1CCC(C(=O)Nc2ccc(-c3nc4ccccc4o3)cc2)CC1 (centres undefined)	i
c1ccc(N=Nc2nnc(Nc3ccccc3)s2)cc1	i
CC1(C)CN=C(N2CCN(CC(O)COc3ccc(OCC(O)CN4CCN(C5=NCC(C)(C)S5)CC4)cc3)CC2)S1 (centres undefined)	i
CCc1nnc2n1N(C(C)=O)C(c1ccc(Cl)c(Cl)c1)=C(C(C)=O)S2	i
CCOC(=O)c1cnc2c(ccc3ccccc32)c1Nc1ccc(NC(C)=O)cc1	i
CCCCCN(C(=O)c1ccc2ccccc2c1)C(CC)c1nc2ccccc2c(=O)n1-c1ccc(Cl)cc1C (centres undefined)	i
CC(C)(C)NC(=S)Nc1cccc(Cl)c1Cl	i
CC1(C)Cc2c(oc3ncn(CCn4cnc5oc6c(c5c4=N)CC(C)(C)SC6)c(=N)c23)CS1	i
Cc1ccc2cc(C)c(Nc3ccc(Cl)cc3)nc2c1	0.15µM*
O=C(c1ccco1)N1CCN(c2ccc([N+](=O)[O-])c(NC3CC3)c2)CC1	i
O=C1Nc2ccc(Br)cc2C12NCCc1c2[nH]c2ccccc12 (centres undefined)	i
CCCOC(=O)C1=C(C)NC2=C(C(=O)CC(c3ccc(OC)cc3)C2)C1c1ccc(Cl)cc1Cl (centres undefined)	i
C=CCSc1nc(N)c2c3c(sc2n1)CN(CCC)CC3	i
Cc1cc(C)n2nc(-c3ccc(Cl)cc3)cc2n1	i
COc1ccc(Cn2c(-c3ccc(Cl)cc3)c[n+]3ccccc23)cc1	i
OCC1CCCCN1Cc1cc(-c2ccccc2)ccc1O (centres undefined)	i
NC(Cc1ccccc1)C(=O)N1CCn2c(nc(-c3ccccc3)c2Nc2ccc3c(c2)OCO3)C1 (centres undefined)	0.0019µM*
CN1CCCN(C(=O)C2CC23CCN(Cc2ccc(N(C)c4ccccc4)cc2)CC3)CC1 (centres undefined)	i
Cc1nc(N(C)c2ccc(C(C)C)cc2)c2c(C)c(C(=O)Nc3cc(C)on3)sc2n1	i
COc1ccc(C2NCCc3c2[nH]c2ccccc32)cc1CSc1nc2ccccc2[nH]1 (centres undefined)	i
CN1CCc2c(sc3c2C(=O)NC(c2ccc(O)cc2)N3)C1 (centres undefined)	i
CCCC[C@@H](C)C(O)[C@H]1C(=O)N[C@@H](C(C)C)C(=O)N(C)[C@H](SC)C(=O)N(C)[C@@H](CC(C)C)C(=O)N[C@@H](C(C)C)C(=O)N(C)[C@@H](CC(C)C)C(=O)N[C@@H](C)C(=O)N[C@H](C)C(=O)N(C)[C@@H](CC(C)C)C(=O)N(C)[C@@H](CC(C)C)C(=O)N(C)[C@@H](C(C)C)C(=O)N1C (some centres undefined)	i
O=C(NCC1(c2ccccc2)CCCC1)C(=O)Nc1nncs1	i
Brc1cccc(CNC2CCN(CCc3ccccc3)CC2)c1	i
COc1ccccc1-c1nnc(Nc2nc3cc4c(cc3s2)OCO4)o1	i
C/C=C(\Cl)C1=CC(=O)[C@]23C[C@H]2[C@@]2(C)CO[C@@]1(O)[C@@]3(O)O2	i
O=C(Nc1cccc(N2CCC(NCC3CCCCC3)CC2)c1)C1CC1	i
O=C1N(Cc2cc3ccccc3s2)CC2CN(Cc3ccc(F)c(F)c3)CCN12 (centres undefined)	i
Cc1ccnc(NC(c2ccncc2)c2ccc3cccnc3c2O)c1 (centres undefined)	i
O=C(Nc1ccc2c(c1)OCO2)c1cc2cc(C3(O)CCN(CCCc4ccccc4)CC3)ccc2o1	i
NNC(=O)CNC(c1ccccc1)c1cc(Br)ccc1NC(=O)c1ccccc1Br (centres undefined)	i
(cont.)
SMILES	P. yoelii liver
CC[n+]1c(/C=C/N(C)c2ccccc2)sc2ccc(OC)cc21	i
N#C/C(=C\NC1CCN(Cc2ccccc2)CC1)C(=O)c1cccs1	i
CCOc1ccc(Nc2cc(C)nc3c(C)cc(C)cc23)cc1	i
CC(=O)Nc1ccc2c(c1)C(=O)N(C(C(=O)NCc1ccccc1)C1CCCCC1)[C@@H](Cc1ccc(O)cc1)C(=O)N2 (some centres undefined)	i
CCOC(=O)C1=C(c2ccccc2)N=c2sc(=Cc3cc(C)n(-c4ccc(F)cc4)c3C)c(=O)n2C1c1cccc(OC)c1OC (centres undefined)	2.4µM*
CCN1/C(=C/c2ccc3cc(C)ccc3[n+]2C)Sc2ccc3ccsc3c21	i
CC(C)CNC(=O)c1cnc(NCCCn2ccnc2)nc1Nc1ccccc1	i
COC(=O)[C@@H]1C[C@@H](NC(=O)c2ccc(OC)cc2OC)CN1C/C(C)=C/c1ccccc1	i
CN(C)C=Nc1nn(C)cc1C(=O)Nc1ccc(F)c(Cl)c1	i
CC[n+]1c2ccccc2n2c(C)cc(C)nc21	i
c1cc2c(cc1Nc1c3c(nc4nncn14)CCC3)OCCO2	i
Oc1ccc(-c2cccnc2)cc1CNCC1CC2C=CC1C21CC1 (centres undefined)	i
COC(=O)CNC(c1ccccc1Cl)c1cc(Br)ccc1NS(=O)(=O)c1ccc(C)cc1 (centres undefined)	i
COc1ccc(S(=O)(=O)NCC2CCC(C(=O)NCC(OC)OC)CC2)cc1 (centres undefined)	i
Cc1ccccc1Cn1cc(NC(=O)c2cc(-c3cccs3)on2)cn1	i
COc1ccc(C(=O)C[n+]2cc(-c3ccc(OC)cc3)n3c2CCC3)cc1	i
COCCNCCN1CCN(c2ccc(C)cc2)C[C@@H]1c1ccccc1	i
COc1ccc(N2CCN(C(=O)C3=C(C)C(=O)OC34CCCCC4)CC2)cc1	i
CC(C)(C)C(/C=C/c1ccc(Cl)cc1Cl)n1nnnc1C1(Nc2ccc(Cl)cc2)CCCCC1 (centres undefined)	i
CC(C)(C)NCC(O)Cn1c2ccc(Cl)cc2c2cc(Cl)ccc21 (centres undefined)	i
O=C(COc1ccc(Cl)cc1)N1CCCn2cccc2C1c1ccc(Cl)cc1 (centres undefined)	i
COc1ccc(NC(=O)C2=C(C)NC(=S)NC2c2ccc(O)cc2)cc1 (centres undefined)	i
Cc1ccc(Cl)cc1N1CCN(S(=O)(=O)c2ccc3c(c2)oc(=O)n3C)CC1	i
O=c1c2c3c(sc2ncn1Cc1cccc(Cl)c1)CC(N1CCCCC1)CC3 (centres undefined)	i
COc1cccc(OC)c1C(=O)Nn1c(-c2cccc(C)c2)nc2ccccc2c1=O	i
COc1cccc(C(=O)NC(c2ccccc2OC)c2cc(Cl)c3cccnc3c2O)c1 (centres undefined)	0.54µM*
Cc1ccc(CNC(=O)C2CNCC2c2ccc(C(F)(F)F)cc2)cc1 (centres undefined)	i
Cc1cc(C=C2SC(=Nc3ccccc3)NC2=O)c(C)n1-c1ccccc1	i
N#Cc1cc(-c2cccc(C(F)(F)F)c2)cn(Cc2c(Cl)cccc2Cl)c1=O	i
O=C(NCCCCCCNC(=O)Nc1ccc(C2=NCCCN2)cc1)Nc1ccc(C2=NCCCN2)cc1	i
N#CC(=Cc1ccc(Sc2ccccc2)o1)c1nc2ccccc2[nH]1	i
CC(C)CC(=O)NCCCCNc1ccnc2cc(Cl)ccc12	i
CCCNC(=O)N1CCC2(CC1)CC(=O)c1ccccc1O2	i
CC(=O)O[C@@H]1C(=O)[C@@]2(C)[C@H]([C@H](OC(=O)c3ccccc3)[C@@]3(O)C[C@H](OC(=O)[C@H](O)[C@@H](NC(=O)c4ccccc4)c4ccccc4)C(C)=C1C3(C)C)[C@]1(OC(C)=O)CO[C@@H]1C[C@@H]2O	i
CN(c1ccccc1)S(=O)(=O)c1ccc(C(=O)Nc2ccc(-c3nc4ccccc4[nH]3)cc2)cc1	i
Cc1ccc2[nH]c3c(NCCN(C)C)ncnc3c2c1	i
NC(=S)N=Nc1c2ccccc2c2nc3no[nH]c3nc12	i

Filtered by structure, the compounds so far containing fluorine
SMILES	P. yoelii liver
O=C(C(Cc1ccc(O)cc1)c1ccccc1)N1CCC(n2c(Cc3ccc(F)cc3)nc3cccnc32)CC1 (centres undefined)	i
O=[N+]([O-])c1ccc(-c2cn3nc(C(F)(F)F)sc3n2)cc1	i
CCc1cc(=O)n(C)c(SC(C)C(=O)Nc2ccc(F)cc2)n1 (centres undefined)	i
CCOC(=O)c1c(NC(=O)C(C)Sc2nnc(CNC(=O)c3ccco3)n2-c2cccc(C(F)(F)F)c2)sc2c1CCC2 (centres undefined)	i
C=C(Cl)CSc1nnc(CCNC(=O)c2ccc(C)cc2)n1-c1ccc(F)cc1	i
CCOc1ccc(C2C(=O)N(C3CCCCC3)CC(=O)N2Cc2ccc(F)cc2)cc1OC (centres undefined)	i
O=C1CSC(=Nc2ccc(F)c(Cl)c2)N1c1ccc(F)c(Cl)c1	i
O=C(c1cc([N+](=O)[O-])cc([N+](=O)[O-])c1)N1CCN(c2cccc(C(F)(F)F)c2)CC1	i
O=C1N(Cc2cc3ccccc3s2)CC2CN(Cc3ccc(F)c(F)c3)CCN12 (centres undefined)	i
CCOC(=O)C1=C(c2ccccc2)N=c2sc(=Cc3cc(C)n(-c4ccc(F)cc4)c3C)c(=O)n2C1c1cccc(OC)c1OC (centres undefined)	2.4µM*
CN(C)C=Nc1nn(C)cc1C(=O)Nc1ccc(F)c(Cl)c1	i
Cc1ccc(CNC(=O)C2CNCC2c2ccc(C(F)(F)F)cc2)cc1 (centres undefined)	i
N#Cc1cc(-c2cccc(C(F)(F)F)c2)cn(Cc2c(Cl)cccc2Cl)c1=O	i

Compound activity (PubChem)
